# Bfl-1 A1 inh: caspase 3/7 activation in MEF A1-2A-BIM cells, primary screen, A1 inhibitor project, cell-based, luminescence, HTS. Caspase-Glo 3/7 luminescence, 3 h; percent of clofoctol response, vehicle zero. caspase activation, % (concentration not given with the values). 330,000 compounds, 0.066% hits. AID 2462, 2010;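 active = over half of replicate activation scores above 10%, or exactly half above 10 with the replicate mean above 10; inconclusive = replicate mean below 10 yet half the replicates above 10; inactive = over half of replicates below 10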;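 also: wells of about 30 µL received 50 nL stock; many hits fall short of the cut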
# Ecoli growth: E. coli growth inhibition, primary screen, OD600; AID 1053175, 2014; OD600 absorbance (no concentration beside the values); 330,000 compounds, 0.21% hits; Escherichia coli growth, 23 h; hits give low values;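 active = OD600 absorbance below the run mean of sample wells minus 3.6 SD, in any replicate, cut at about 0.56 in these data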;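 also: stock transfer was 300 nL into about 60 µL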
# UCH37 inh: inhibitors of human UCH37 deubiquitinase, primary screen, biochemical, Ub-AMC cleavage, fluorescence; Ubiquitin carboxyl-terminal hydrolase isozyme L5 (Homo sapiens), Q9Y5K5; purified proteasome/UCH37; inhibition, % (no concentration beside the values); 330,000 compounds, 0.33% hits; AID 588478, 2011;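 active = mean of two replicates above 20%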;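 also: 0% = compound-free wells with enzyme and 100% = wells lacking proteasome; stock transfer was 100 nL into about 20 µL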
#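 Material: Human UCH37 enzyme supplied as purified proteasome complex | Schedule: 30 min compound-proteasome preincubation then 25 min substrate reaction, room temperature | Detection: AMC fluorescence from Ub-AMC cleavage, excitation 355 nm, emission 460 nm | Benchmarks: Wells without proteasome as full block, compound-free enzyme plus substrate as uninhibited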
# LANA-H2A inh: blockers of LANA interaction with H2A/H2B – biochemical, FP readout, HTS, primary screen | Protein LANA1 (Human herpesvirus 8 type P (isolate GK18)), Q9QR71 | cell-free LANA-H2A/H2B peptide, fluorescence polarization | inhibition, % (no concentration beside the values) | 320,000 compounds, 0.6% hits | AID 2629, 2010; in the data active = inhibition mostly above about 10%, no sharp cut-off; inactive = mostly below about 6.7%;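 also: stock transfer was 7.5 nL into about 10 µL; 0% = median of vehicle wells and 100% = median of positive control wells; one replicate is shown; the record names a cut of 25% in any replicate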
# Target sequence (Q9QR71 whole entry, looked up): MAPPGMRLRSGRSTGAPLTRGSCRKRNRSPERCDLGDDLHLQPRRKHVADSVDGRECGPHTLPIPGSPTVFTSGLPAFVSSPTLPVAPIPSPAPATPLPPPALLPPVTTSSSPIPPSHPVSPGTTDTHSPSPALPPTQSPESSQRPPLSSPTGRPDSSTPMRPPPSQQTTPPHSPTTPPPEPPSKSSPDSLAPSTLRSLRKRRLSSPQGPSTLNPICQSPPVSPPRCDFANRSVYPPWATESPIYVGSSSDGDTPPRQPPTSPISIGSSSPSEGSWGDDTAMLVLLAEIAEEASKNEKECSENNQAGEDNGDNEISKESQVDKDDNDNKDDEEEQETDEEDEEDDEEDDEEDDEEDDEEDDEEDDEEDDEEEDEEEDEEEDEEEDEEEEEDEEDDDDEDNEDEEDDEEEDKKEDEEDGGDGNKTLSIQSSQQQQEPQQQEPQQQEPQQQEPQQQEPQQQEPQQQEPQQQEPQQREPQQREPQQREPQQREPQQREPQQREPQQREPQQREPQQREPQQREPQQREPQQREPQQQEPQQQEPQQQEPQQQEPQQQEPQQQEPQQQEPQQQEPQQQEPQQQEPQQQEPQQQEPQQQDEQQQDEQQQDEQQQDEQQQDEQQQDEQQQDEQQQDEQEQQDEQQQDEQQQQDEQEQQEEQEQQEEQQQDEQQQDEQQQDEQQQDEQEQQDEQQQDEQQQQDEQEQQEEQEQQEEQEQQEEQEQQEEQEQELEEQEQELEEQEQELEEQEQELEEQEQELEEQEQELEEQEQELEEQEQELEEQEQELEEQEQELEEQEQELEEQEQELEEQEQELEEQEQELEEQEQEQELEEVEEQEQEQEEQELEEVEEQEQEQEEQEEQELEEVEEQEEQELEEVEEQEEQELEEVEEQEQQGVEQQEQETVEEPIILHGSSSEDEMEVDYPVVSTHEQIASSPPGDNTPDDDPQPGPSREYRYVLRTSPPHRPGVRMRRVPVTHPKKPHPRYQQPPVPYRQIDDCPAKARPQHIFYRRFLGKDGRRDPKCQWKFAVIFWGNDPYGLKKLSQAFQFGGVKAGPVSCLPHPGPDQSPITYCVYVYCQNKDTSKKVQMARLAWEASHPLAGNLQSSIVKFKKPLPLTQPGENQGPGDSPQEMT
# Vif TR-FRET: inhibitors of Vif binding to APOBEC3G peptide, primary screen, biochemical, TR-FRET, GST-Vif 1-94, biotin-A3G peptide, dose response retest (AID 1117319); TR-FRET GST-Vif / biotin-A3G peptide binding; higher % means a stronger effect; test concentration not given here; strong numbers were not always called active; inhibition, %; hits with a dose series show IC50 in µM; 260,000 compounds, 0.57% hits;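 active = above the screen mean plus three standard deviations and confirmed in dose response; inconclusive = results disagree or hit not tested in dose response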;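 also: Vif residues 1-94 fused to GST binding biotinylated APOBEC3G peptide 110-148; 0% = full assay without inhibitor and 100% = GST in place of GST-Vif; retest series ran down from 100 µM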
# B2AR ag: beta2AR agonists driving receptor internalization, primary screen, cell-based, FAP fluorogen, flow cytometry; Am2.2-beta2AR cells; reference of the scale not given here; response, % (concentration not given with the values); 340,000 compounds, 0.43% hits; AID 504454, 2011;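 active = response above a set limit, near 3 SD of response in nonfluorescent compounds, cut at about 42% in these data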;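 also: stock transfer was 100 nL into about 11 µL; a reference agonist was the positive control; negative values mostly stem from fluorescent compounds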
# HNF4A DNA FP: change in binding of human HNF4A to DNA, primary screen, biochemical, fluorescence polarization, FITC-DNA. Hepatocyte nuclear factor 4-alpha (Homo sapiens), P41235. 1 h. activity change, % at 10 µM. 360,000 compounds, 0.3% hits. AID 1224865, 2016; in the data active = activity change above about 30%, passing the limit was not always enough;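 also: controls were the assay level and a saturating level of protein; the project sought stronger binding though the title names inhibitors; some compounds called inactive have numbers as strong as hits; positive values seem to mean higher polarization but the record does not say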
# The depositor's hits bear a star; ? = inconclusive; · = not tested or not shown; & = joins results of further samples.
entry	molecule	Bfl-1 A1 inh	Ecoli growth	UCH37 inh	LANA-H2A inh	Vif TR-FRET	B2AR ag	HNF4A DNA FP
1	COc1ccc(C2=CC(=O)CC(c3ccc(OC)cc3)C2)cc1 (stereo unspecified)	-0.5	·	·	-0.6	-1%	-4	-0.9
2	CO/N=C/c1ccc(Oc2ccc(C)cc2)c([N+](=O)[O-])c1	0.3	·	·	-1.6	5%	-5	-3.8
3	Cc1n[nH]c(=O)c2c(NC(=O)CSc3ncccn3)oc(C)c12	-0.2	0.7	3.5	0.4	-3%	-4	-1.0
4	COc1ccc([N+](=O)[O-])cc1/C=N/Nc1nc(N2CCCCC2)nc(N2CCCCC2)n1	-0.1	·	·	-0.2	9%	-1	-3.6
5	O=C(/C=C/c1cccc(F)c1)OCC(=O)N1CCCc2ccccc21	0.7	0.62	-0.6	-8.5	-11%	-4	3.7
6	Cc1sc2nc3n(c(=O)c2c1C)CCCS3	0.0	0.67	4.7	2.4	-5%	-1	9.3
7	Cn1c(=O)oc2cc(S(=O)(=O)NCc3ccccc3)ccc21	-0.3	0.69	0.1	-3.8	-1%	2	3.0
8	Cn1cccc1-c1nc2ccc([N+](=O)[O-])cc2[nH]1	-5.4	0.62	7.0	1.7	-6%	1	0.9
9	CCOC(=O)C(O)(CC(=O)Nc1ccc(Cl)cc1Cl)C(F)(F)F (stereo unspecified)	-0.2	0.72	3.3	-0.9	2%	2	5.1
10	CCOC(=O)/C(=C/c1ccco1)NC(=O)c1ccc(Br)o1	0.3	0.72	4.5	1.4	·	4	-3.0
11	CC(=C\c1ccccc1)/C=C1/SC(=S)N(CCC(=O)O)C1=O	-1.6	0.65	9.2	2.5	-2%	-4	-0.4
12	CCn1cc(/C=C(\NC(=O)c2ccc(OC)c(OC)c2)C(=O)N2CCOCC2)c2ccccc21	-0.1	0.72	9.4	1.1	0%	-5	-0.2
13	COc1ccc(C2=NN(C(=O)c3cccs3)C(c3ccccc3OC)C2)cc1OC (stereo unspecified)	-0.2	0.71	-40	-4.9	·	5	-0.7
14	CCN(CC)CCOC(=O)C1(c2ccc([N+](=O)[O-])cc2)CCCC1	0.2	0.66	5.2	-0.6	·	0	2.0
15	O=C(Nc1ccccc1Cl)C1CC(=O)N(Cc2ccco2)C1 (stereo unspecified)	0.6	0.67	0.1	2.7	-4%	-5	-2.8
16	CCOC(=O)C1(CCOc2ccccc2)CCN(Cc2ccc(F)c(OC)c2)CC1	1.1	0.65	3.1	4.0	·	4	2.3
17	Cc1nn2c(-c3ccc(Cl)cc3Cl)nnc2s1	-1.3	0.73	0.7	-2.9	6%	-9	1.5
18	Cc1ccc(-c2nn(-c3ccccc3Cl)cc2C(=O)NCC2CCCO2)cc1 (stereo unspecified)	-0.9	0.7	2.0	1.4	0%	10	-0.9
19	Cc1ccc(CCN2CC(C(=O)NCCCN3CCCCC3)CC2=O)cc1 (stereo unspecified)	-0.2	0.67	-0.1	1.9	-1%	2	6.7
20	CCC(=O)Nc1ccc2c(c1)nc(CN1CCCCC1)n2C	0.3	0.68	-1.9	1.9	8%	-13	0.5
21	CC(=O)NC1C(=O)N(CCc2ccccc2)c2ccccc21 (stereo unspecified)	-0.1	0.7	6.3	-0.7	-7%	3	1.1
22	O=C1N2CN(C(c3ccccc3)c3ccccc3)CN=C2SC1(CO)CO	-0.9	0.66	0.8	2.4	14%	0	-0.9
23	O=C1Nc2ccc(S(=O)(=O)N(CCO)CCO)c3cccc1c23	1.5	0.67	-334	-4.5	·	-6	0.7
24	CNC(=O)C(C#N)(Cc1cc(C(C)=O)ccc1OC)Cc1cc(C(C)=O)ccc1OC	-0.7	0.68	1.3	-10	·	-5	-4.3
25	COc1ccc(/C=N/Nc2nc(-c3cccnc3)nc3ccccc23)c(OC)c1	1.5	·	·	12	14%	1	1.5
26	Cc1noc(C)c1COc1ccccc1C(=O)Nc1ccc(C(N)=O)cc1	1.2	0.69	1.6	3.9	-5%	10	7.9
27	CCN(CC)CCN(C(=O)c1cccc(N2C(=O)CCC2=O)c1)c1nc2cc3c(cc2s1)OCO3	0.7	0.65	5.7	-3.8	11%	6	-0.8
28	O=C(COc1ccccc1Cl)NNC(=O)C1CCCO1 (stereo unspecified)	0.6	0.75	1.4	-3.5	5%	-10	2.1
29	O=C(/C=C/c1ccccc1[N+](=O)[O-])N1CCN(C(=O)c2ccco2)CC1	-0.6	0.69	5.7	1.8	-1%	0	-0.7
30	Cc1cccc(C(=O)N/N=C/c2ccccn2)c1	-0.7	·	·	1.8	·	-7	3.0
31	CC(=O)Nc1ccc(S(=O)(=O)NCC(=O)OCC(=O)N2CCCc3ccccc32)cc1	0.5	0.69	1.1	3.3	7%	-9	-0.9
32	Cc1cccc(CNS(=O)(=O)c2ccc(-c3ccc(=O)[nH]n3)s2)c1	0.4	0.69	4.6	-2.5	-10%	8	2.6
33	O=C(Cc1ccccc1)Nc1ccc(NC(=O)c2cccs2)cc1Cl	-0.1	0.65	-29	3.0	-6%	12	2.9
34	COc1cccc(CN2CCC(C(=O)N3CCN(c4ccccc4F)CC3)CC2)c1OC	0.2	0.7	2.6	1.5	-6%	-1	2.6
35	O=C(NCCCc1ccccc1)c1cnc2n(c1=O)CCS2	1.0	0.64	1.3	-4.0	6%	-23	6.9
36	CSC(=S)N/N=C/c1ccccc1	0.0	·	·	-3.2	10%	-1	0.7
37	COC(=O)c1cc(Br)ccc1OC(=O)c1cccnc1	0.2	0.7	2.7	-0.9	33%	3	-1.5
38	Cc1cc(=O)[nH]c(SCC(=O)Nc2ccc(S(N)(=O)=O)cc2)n1	-1.2	0.69	-2.5	-1.4	18%	-11	-5.4
39	O=C(NCCN1CCCCC1)c1cc2ccccc2[nH]1	0.1	0.74	-0.4	-1.7	?	-2	-0.7
40	Cc1ccccc1CN1CCSc2sccc2C1=O	0.4	0.66	-0.9	-1.3	-10%	1	2.8
41	Cc1ccc(N2CCN(CC3CC=CCC3)CC2)cc1 (stereo unspecified)	-0.3	0.64	-0.5	-1.8	2%	4	1.1
42	CN(CC(=O)Nc1ccc(S(=O)(=O)N2CCCC2)cc1)Cc1ccc(Cl)c(Cl)c1	0.4	0.7	1.4	2.8	-4%	-8	-2.3
43	COc1ccc(N(CC(=O)O)S(=O)(=O)c2ccc(OC)c(OC)c2)cc1	1.8	0.73	3.9	-1.7	0%	-3	2.7
44	NC(=O)c1ccsc1NC(=O)CSc1nncs1	·	0.7	3.4	·	2%	-4	7.0
45	COc1ccccc1OCc1ccc(C(=O)NN)cc1	0.1	0.67	1.8	1.1	-5%	5	-1.8
46	COc1ccc(S(=O)(=O)N2CCCOC2CNC(=O)C(=O)NCc2ccco2)cc1 (stereo unspecified)	0.5	0.68	3.3	0.6	4%	13	-0.3
47	Cc1ccc(CNC(=O)c2cccc3c2C(=O)c2ccc(N4CCCCC4)cc2S3(=O)=O)cc1	-0.8	0.68	-1.7	3.5	·	-4	38*
48	COc1ccc(-n2cc3c(-c4cccc(Br)c4)nnc(C)c3n2)cc1	0.6	·	·	6.8	·	-59	133
49	C=CCn1c(Cc2cccs2)nnc1SC/C=C/c1ccccc1	1.1	0.67	1.8	-2.4	12%	10	1.6
50	O=C(CCC(=O)c1ccccc1)Nc1ccccc1OC(F)F	-0.4	0.69	2.0	3.8	-2%	-4	-0.6
51	O=C(NCc1ccccc1)N1CCC(CO)(Cc2cccc(F)c2)CC1	-0.3	0.68	3.3	-3.2	6%	3	-1.9
52	c1ccc(C2CCC(N3CCN(c4ccccc4)CC3)CC2)cc1 (stereo unspecified)	1.0	0.63	2.1	5.7	·	6	2.3
53	COc1ccc(-n2c(C)cc(-c3csc(NC(=O)c4ccc(S(=O)(=O)N(C)C)cc4)n3)c2C)cc1	-0.3	0.71	-20	-4.5	22%	11	10
54	CCCCN(CC)CCCNC(=O)c1cc2c(=O)n(C)c3ccccc3c2n1C	1.4	0.75	-1.5	0.7	26%	7	3.0
55	O=C(NCc1ccc(Cl)cc1)Nc1ccc(F)cc1	0.9	0.7	-2.7	-3.5	-1%	-5	1.9
56	CCOC(=O)c1c(-c2ccccc2)oc2ccc(O)c(CN3CCCC3)c12	1.2	0.68	3.8	-3.9	?	95*	-2.4
57	O=C(Nc1ccccc1)C1CCN(S(=O)(=O)c2cccs2)CC1	·	0.67	4.9	·	·	0	11
58	COc1ccc([C@H]2CC(=O)C=C(c3ccc4cc[nH]c4c3)C2)cc1	0.0	·	6.4	3.0	·	-5	3.8
59	COc1ccc(-c2cc(C(F)(F)F)nc(S(=O)(=O)CCCC(=O)Nc3cc(C)on3)n2)cc1OC	·	0.69	-89	·	-2%	36	4.7
60	O=C(OCc1c(-c2ccccc2)ncc2ccccc12)c1ccc(C(F)(F)F)cc1	-0.2	0.73	-2.0	3.4	·	3	-3.8

# Continued:
entry	molecule	Bfl-1 A1 inh	Ecoli growth	UCH37 inh	LANA-H2A inh	Vif TR-FRET	B2AR ag	HNF4A DNA FP
61	O=C(COC(=O)c1ncc(Cl)c(Cl)c1Cl)c1ccc(Cl)s1	0.6	0.71	0.3	-4.5	-2%	-13	2.9
62	N[C@@H](Cc1ccccc1)C(=O)N1CCC(C(=O)N[C@@H](Cc2c[nH]c3ccccc23)C(=O)O)CC1	-0.3	0.68	1.3	1.0	0%	-11	-1.0
63	CC(C)[C@H](NC(=O)N1CC(=O)Nc2ccccc21)C(=O)N[C@H](Cc1c[nH]c2ccccc12)C(=O)O	-0.3	0.7	4.3	-1.2	·	10	0.2
64	CCOC(=O)c1c(-c2ccc(C)o2)csc1NC(=O)CN(C)CC(=O)Nc1ccc(C)cc1	-0.4	0.68	-0.6	-3.0	-8%	7	1.6
65	CCOc1ccc(NC(=O)CSc2nnc(C3CC3)n2C)cc1S(=O)(=O)N1CCCCC1	0.3	0.7	1.9	-2.3	-8%	-3	2.3
66	O=C(COC(=O)C1=COCCO1)Nc1ccc(Br)cc1Br	-0.8	0.69	-4.1	2.2	·	11	1.9
67	Cc1ccc(S(=O)(=O)CNC(=O)c2ccccc2)cc1	0.3	0.73	-0.3	-2.7	11%	3	-2.0
68	O=C(COc1ccc(S(=O)(=O)N2CCOCC2)cc1)Nc1ccc(Cl)c(C(F)(F)F)c1	0.8	0.69	3.7	1.0	-3%&-5%	-4	-1.6
69	CCCn1c(CNC(=O)c2cccs2)nc2ccccc21	0.2	0.7	0.7	14	-1%	-3	0.8
70	COc1ccc(C(=O)c2coc3ccc(O)c(CN4CCCC4)c23)cc1	0.2	0.69	2.9	-0.7	6%	8	6.2
71	COc1ccc(-c2ccnc(SCC(=O)Nc3ccccn3)n2)cc1	0.8	0.68	1.2	-1.5	-22%	-3	2.2
72	N#Cc1c(N2CCOCC2)nsc1-c1ccccc1	-3.4	0.7	0.0	0.8	·	-7	-0.7
73	O=C(CN1CCCCCC1)Nc1ccc(Oc2ccccc2)cc1	0.3	0.6	1.4	6.6	9%	0	0.5
74	COc1ccc(NC(=O)CSc2nnnn2-c2ccccc2F)cc1	0.9	0.67	1.8	6.6	·	-9	6.4
75	CCOc1ccc(S(=O)(=O)Nc2cccc(C(=O)NCC(c3ccco3)N(C)C)c2)cc1 (stereo unspecified)	0.1	0.61	-3.5	6.0	8%	15	0.2
76	CCOc1cc(/C=C2\C(=N)N3N=C(C)SC3=NC2=O)ccc1OCCOc1ccccc1	-0.1	0.74	-57	1.5	·	7	2.6
